hNpr1 antagonist = antagonists of human natriuretic peptide receptor Npr1 | HEK293 hNpr1 GloSensor cGMP, ANP-stimulated luminescence | Potency, µM (doses to about 46.3 µM), inactives show top-dose activity change, negative = inhibition, hits mostly inhibitors | actives 1.6% (n = 76,000) | AID 1347048; active = well fitted inhibition curve with a large enough effect; inconclusive = small, poorly fitted or top-dose-only effect; inactive = no such curve, though single readings can be large or run the other way;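 also: nearly all actives have a fitted effect of over 60% in size; nearly all hits also lower the signal before the agonist is added; a reference antagonist and vehicle were the controls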
Target sequence (P16066 whole entry, looked up): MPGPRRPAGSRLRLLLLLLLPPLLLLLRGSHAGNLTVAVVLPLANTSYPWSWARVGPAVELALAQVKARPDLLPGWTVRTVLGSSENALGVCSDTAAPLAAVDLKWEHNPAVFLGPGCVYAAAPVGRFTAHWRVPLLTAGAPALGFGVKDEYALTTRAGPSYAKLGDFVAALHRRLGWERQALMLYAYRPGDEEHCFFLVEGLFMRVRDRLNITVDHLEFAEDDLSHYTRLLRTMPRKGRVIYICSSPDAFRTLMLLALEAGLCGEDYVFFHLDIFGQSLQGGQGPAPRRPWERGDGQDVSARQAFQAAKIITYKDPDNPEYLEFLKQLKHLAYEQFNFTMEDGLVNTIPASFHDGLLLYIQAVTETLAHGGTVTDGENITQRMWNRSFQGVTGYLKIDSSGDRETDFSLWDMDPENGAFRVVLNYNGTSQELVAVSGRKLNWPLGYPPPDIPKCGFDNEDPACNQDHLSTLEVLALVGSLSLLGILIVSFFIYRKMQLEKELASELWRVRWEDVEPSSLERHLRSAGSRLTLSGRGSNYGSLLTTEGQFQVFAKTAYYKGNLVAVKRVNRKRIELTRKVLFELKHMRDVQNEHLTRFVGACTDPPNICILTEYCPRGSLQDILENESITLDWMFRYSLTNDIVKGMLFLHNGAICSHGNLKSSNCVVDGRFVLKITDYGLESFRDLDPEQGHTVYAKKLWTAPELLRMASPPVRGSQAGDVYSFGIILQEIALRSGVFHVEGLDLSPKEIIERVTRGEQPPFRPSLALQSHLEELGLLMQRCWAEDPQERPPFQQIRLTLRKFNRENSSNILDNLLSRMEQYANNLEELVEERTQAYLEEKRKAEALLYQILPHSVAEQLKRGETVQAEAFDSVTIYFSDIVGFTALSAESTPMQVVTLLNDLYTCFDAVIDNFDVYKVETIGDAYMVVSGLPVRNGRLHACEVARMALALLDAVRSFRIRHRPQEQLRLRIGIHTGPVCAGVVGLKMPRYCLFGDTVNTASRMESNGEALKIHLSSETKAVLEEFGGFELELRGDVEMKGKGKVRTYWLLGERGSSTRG
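Compound pre-incubated 30 min at room temperature on GloSensor-loaded HEK293 cells stably carrying hNpr1 and the pGS-40F cGMP biosensor. Stimulation uses hNppA at 0.1 nM final; luminescence is taken at baseline and 20 min post-agonist.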
An asterisk follows results filed as active; ? = inconclusive; [ ] = dose if it differs, or a comment. % is scaled to controls: 0 for no effect and ±100 for the full control effect; potency is read from the fitted curve at half-maximal effect. An excerpt; rates above refer to the full screens.

SMILES | hNpr1 antagonist
CC(C)CN1C(=O)c2cccn2CC1CNC(=O)c1cccs1 (stereo unspecified) | 9%
CS(=O)(=O)N(C1CCOCC1)C1CCN(S(=O)(=O)Cc2ccccc2)CC1 | 0%
CN(Cc1ccccc1)C(=O)CC1CCCN(c2cnn(C)c(=O)c2)C1 (stereo unspecified) | 9%
C#CCNC(=O)c1nc(-c2cc(Cl)cc(Cl)c2)c2ccccn12 | -1%[70.6 µM]
COc1ccccc1CN1CC[C@H](c2nnc(Cc3c[nH]c4ccccc34)o2)C1 | -1%[70.6 µM]
COCCN(C)C(=O)c1coc(COc2ccc(F)cc2Cl)n1 | 7%
COC[C@H]1CCCN1Cc1nc(C2(O)CCN(C3COC3)CC2)cs1 | -2%[70.6 µM]
O=C(Nc1nncs1)C1CC(=O)N(c2n[nH]c3cc(Br)ccc23)C1 (stereo unspecified) | -5%
COCCC(=O)N1CCC(C2CCNC2)CC1 (stereo unspecified) | -1%
O=C(NCc1cccc(F)c1)N1CC(c2nnc(-c3ccncc3)o2)C2(CCOCC2)C1 (stereo unspecified) | 1%
CC[C@H]1CN(C(=O)Nc2cccc(OC)c2)CC[C@H]1CC(=O)N(C)CC#N | 0%[70.6 µM]
Cc1ccc(CNC(=O)N2CCC(c3nc(CCOCC4CCOCC4)no3)C2)cc1 (stereo unspecified) | 9%
O=C(c1ccccc1F)N1CCCC2(C1)NC(=O)N(Cc1ccccc1)C2=O (stereo unspecified) | -1%
C[S+](=O)([O-])CCn1ncc2cc(OCc3cccc(-c4ccccc4F)c3)ccc21 | ?
Cc1cc(=O)n(CC(=O)Nc2ccc(Br)cc2)c(N2CCN(c3ccccc3)CC2)n1 | -12%
CC(C)CNC(=O)C(NC(=O)c1ccccc1)C1CCN(C(=O)c2ccc(F)cc2)CC1 (stereo unspecified) | 1%
COc1ccc(CN(C)Cc2cccn2C)cc1 | 0%[70.6 µM]
CC1=C[C@@H](CNC(=O)CC(C)(C)CC(=O)O)[C@H](C(C)C)C[C@H]1Cc1nc2ccc(F)cc2[nH]1 | 3%
Cc1ccccc1-c1cnc2[nH]cc(CC(=O)N3CCOCC3)c2c1 | 2.8µM*
CN1Cc2cccn2CC1CNC(=O)c1nccn1C (stereo unspecified) | 3%
CS(=O)(=O)N1CCC(C2CCN(C(=O)c3ccc(F)c(Cl)c3)C2)CC1 (stereo unspecified) | 1%
CC(c1cccs1)N(C)C(=O)c1ccc(Cl)cn1 (stereo unspecified) | 0%[70.6 µM]
Cc1ccc(CN2CCC3(CC2)C(C(=O)O)CC(=O)N3C)o1 (stereo unspecified) | -3%
Nc1nc(C2CC(NC(=O)Cc3ccc4c(c3)OCO4)C2)cc(=O)[nH]1 (stereo unspecified) | 7%
CN(C)c1cc(CC2CC(=O)N(c3ccccc3)C2)ncn1 (stereo unspecified) | -2%

3 entries already listed, arranged by the value under hNpr1 antagonist, smallest number first:
SMILES,hNpr1 antagonist
Cc1ccc(CN2CCC3(CC2)C(C(=O)O)CC(=O)N3C)o1 (stereo unspecified),-3%
O=C(NCc1cccc(F)c1)N1CC(c2nnc(-c3ccncc3)o2)C2(CCOCC2)C1 (stereo unspecified),1%
COCCN(C)C(=O)c1coc(COc2ccc(F)cc2Cl)n1,7%

Reprinted at random: four compounds from above.
SMILES | hNpr1 antagonist
CC(C)CN1C(=O)c2cccn2CC1CNC(=O)c1cccs1 (stereo unspecified) | 9%
Cc1ccccc1-c1cnc2[nH]cc(CC(=O)N3CCOCC3)c2c1 | 2.8µM*
Nc1nc(C2CC(NC(=O)Cc3ccc4c(c3)OCO4)C2)cc(=O)[nH]1 (stereo unspecified) | 7%
CS(=O)(=O)N(C1CCOCC1)C1CCN(S(=O)(=O)Cc2ccccc2)CC1 | 0%

A different layout for part of the listing above.
| SMILES | hNpr1 antagonist |
| --- | --- |
| Cc1ccc(CNC(=O)N2CCC(c3nc(CCOCC4CCOCC4)no3)C2)cc1 (stereo unspecified) | 9% |
| O=C(c1ccccc1F)N1CCCC2(C1)NC(=O)N(Cc1ccccc1)C2=O (stereo unspecified) | -1% |
| C[S+](=O)([O-])CCn1ncc2cc(OCc3cccc(-c4ccccc4F)c3)ccc21 | ? |
| Cc1cc(=O)n(CC(=O)Nc2ccc(Br)cc2)c(N2CCN(c3ccccc3)CC2)n1 | -12% |
| CC(C)CNC(=O)C(NC(=O)c1ccccc1)C1CCN(C(=O)c2ccc(F)cc2)CC1 (stereo unspecified) | 1% |
| COc1ccc(CN(C)Cc2cccn2C)cc1 | 0%[70.6 µM] |

(more compounds)
SMILES | hNpr1 antagonist
COC(=O)[C@@H](Cc1cccnc1)NC(=O)[C@H]1CN(C(=O)c2cccnc2)CCN1S(=O)(=O)c1ccccc1 | 1%
O=C(NCCc1noc(C2CC2)n1)c1ccc2c(c1)OCO2 | 11%
C(=C\c1ccccc1)/CN1CCN(Cc2nc(COc3ccccc3)no2)CC1 | -25%
O=C(CC[C@@H]1CNC(=O)[C@@H]2C[C@H](NC(=O)Nc3ccc(F)cc3F)CN12)NCc1ccc(F)cc1 | -1%
CC1=NOC2(CCN(C(=O)c3ccc(F)cc3)CC2)C1 | 28%[70.6 µM]
CC1CCN(C(=O)C2(c3ccc(NC(=O)C4CC4)cc3)CCCCC2)CC1 | -2%
O=C(NCc1ccccc1)N1CCC(O)(c2csc(CN3CC[C@@H](O)C3)n2)CC1 | 5%[70.6 µM]
Cc1ccc2[nH]c(CCCn3cc(-c4nccn4C)nn3)nc2c1C | -2%
CNC(=O)CCn1ncc2cc(OCc3ccccc3-c3c(F)cccc3OC)ccc21 | 4%[70.6 µM]
O=C(NC[C@H]1OC[C@@H](NC2CCCCC2)[C@@H]1O)C1CCCC1 | 4%[70.6 µM]
CCC(=O)NC(C)C(=O)N1CCn2nc(Cc3ccccc3)cc2C1 (stereo unspecified) | 6%
O=C(N[C@H]1CCN2C(=O)N(c3ccc(OC(F)(F)F)cc3)C(=O)[C@@H]2C1)c1ccncc1 | 2%[70.6 µM]
COCCC(=O)N[C@@H]1CN(c2ccncn2)C[C@H]1CN(C)C | -2%
CN1CCCC2(C1)CN(C)c1ccc(C(=O)NCc3cccs3)cc12 (stereo unspecified) | 0%[70.6 µM]
COc1ccc(NC(=O)N2CC(c3nnc(-c4ccncc4)o3)C3(CCOCC3)C2)c(C)c1 (stereo unspecified) | -4%
COc1ccc(C(=O)Nc2ccc(-c3noc([C@@H]4CCCN4Cc4ccc(OC(F)(F)F)cc4)n3)cn2)cc1 | 11µM*
O=C(c1ccccc1Cl)N1C[C@@H](CO)[C@H](c2ccncc2)C1 | -16%
Cc1ccc(C2Cn3nnc(-c4nc(-c5ccccc5F)no4)c3CO2)c(C)c1 (stereo unspecified) | 1%
Cc1noc([C@@H]2CN(Cc3cccc(Cl)c3F)C[C@H]2CO)n1 | -3%
CCS[C@H]1CCN2C(=O)c3cc(-c4cc(Cl)ccc4OC)ccc3NC(=O)[C@H]12 | -2%[70.6 µM]
Cc1nn(C)cc1CN1C[C@@H](COCC(N)=O)[C@H](c2ccncc2)C1 | 2%
NS(=O)(=O)c1ccc(C(=O)NC(Cc2ccncc2)C2CC(O)C2)cc1 (stereo unspecified) | 1%
Cc1cnc(CC2CCCN(C(=O)c3ccnn3C)C2)n1C(C)C (stereo unspecified) | 3%
O=C(NCc1cccs1)c1nc(-c2ccccc2)c2ccccn12 | -1%[70.6 µM]
C#CCN(C)Cc1nc(C2(O)CCN(C(=O)c3ccc(F)cc3)CC2)cs1 | -2%[70.6 µM]

Other records
SMILES | hNpr1 antagonist
O=C(c1ccccn1)N1CCCC(c2nc(C3CCOCC3)no2)C1 (stereo unspecified) | 2%
Cn1nccc1C(=O)NC1CCN(c2cc(-c3ccccc3)[nH]n2)CC1 | -2%
Cc1nc(C2CCCN(C(=O)C(C)(C)N)C2)cc(N2CCOCC2)n1 (stereo unspecified) | 0%
Cc1ccc(Cn2cc(-c3ccncc3)cc2C(=O)NCc2ccc(N(C)C)cc2)cc1 | 0%
Cc1cc(C)n(CCC(=O)N2CCC(N3C[C@H](O)C[C@H]3C(=O)NC3CCCCC3)CC2)n1 | -1%
Cc1ccc(C2Cn3cnc(C(=O)N4CCC(C(=O)NC(C)c5ccccc5)CC4)c3CO2)cc1 (stereo unspecified) | 5%
Clc1ccc(C2CN(c3cc(C4CC4)ncn3)CCO2)cc1 (stereo unspecified) | 11µM*
O=S1(=O)CCC(S(=O)(=O)NC2CCCC2)C1 (stereo unspecified) | 1%
COCCN1CCCC2(CCN(C(=O)c3ccc(F)c(Cl)c3)C2)C1=O (stereo unspecified) | 0%
Cc1ccc(CC(=O)N2CCC(CC(=O)NCc3ccccc3)C2)cc1 (stereo unspecified) | -1%
COc1ccc([C@@H](NC(=O)c2ccc3cccc(F)c3n2)C2CC(O)C2)cn1 (stereo partly specified) | 5%
COCCNC(=O)c1ccc2c(c1)N(C)C(CC(=O)Nc1ccc(N)nc1)CO2 (stereo unspecified) | 12%
O=C(c1ccc(F)cc1)N1CC(Oc2ccc(-c3nc(-c4ccccc4)no3)cc2)C1 | -11%
CC(C)(C)C(=O)N1CCn2c(nnc2[C@@H]2C[C@@H](O)CN2Cc2ccccc2)C1 | 9%
CCN1CCCC2(CCN(C(=O)NCCc3ccccc3F)C2)C1=O (stereo unspecified) | -4%
O=C(NC1CCN(C(=O)N2CC3CC(C2)[C@H]2CCCC(=O)N2C3)CC1)c1ccoc1 (stereo partly specified) | -8%
CCOCCC(=O)N1CCCC(c2cc(N3CCOCC3)nc(C)n2)C1 (stereo unspecified) | 3%
CCNC(=O)N1C[C@@H](Oc2cccnc2)C[C@H]1C(=O)N1CCCC1 | 3%
Cn1cc(-c2ccc(Cl)cc2)cc1C(=O)O | -4%
O=C1NC2(CCN(C(=O)c3ccc(C(F)(F)F)cc3)CC2)COc2ccccc21 | -1%
O=C1NCCOCCN(S(=O)(=O)c2cccnc2)[C@H]2CCC[C@@H]12 | -1%
c1cc(-c2cc(-c3ccc4cn[nH]c4c3)cn3cncc23)ccn1 | -2%[70.6 µM]
COCc1nc(C2CC(NC(=O)c3cc(-c4ccsc4)n[nH]3)C2)cc(=O)[nH]1 (stereo unspecified) | 1%
COc1cc(CNC(C)C)ccc1OCC(O)CN1CCSCC1 (stereo unspecified) | 5%
COc1ccc(C)cc1NC(=O)Cn1nc2c(cc1=O)CCCCC2 | 2%

Carrying on.
SMILES | hNpr1 antagonist
O=C(C1CCC1)N1CCC(N2C(=O)C(O)C23CCCCC3)CC1 (stereo unspecified) | 0%
O=C(Cc1c(F)cccc1Cl)N1C[C@@H](CO)[C@H](c2ccccn2)C1 | 3%
Cc1ccc(NC(=O)C2CN(S(=O)(=O)C3CC3)CC23CCCCC3)c(F)c1 (stereo unspecified) | -3%
CCN1CCN(C(=O)C2N(c3ccc(OC)cc3)C(=O)C23CCCCC3)CC1 (stereo unspecified) | 3%
CNC(=O)[C@@H]1C[C@@H](n2cc(CN(C)C(=O)Nc3ccccc3)nn2)CN1 | 3%
COc1ccc(N2CC(C(=O)N3CCSCC3)CC2=O)cc1Cl (stereo unspecified) | -11%
COc1ccc(Nc2cnc3ccc(-c4ccccc4OC)nn23)cc1 | -14%[70.6 µM]
CC1=NS(=O)(=O)N(Cc2ccccc2)C=C1C(=O)OCc1noc(C)n1 | -1%
Cc1noc(C)c1C(=O)N1CCC(c2nnc(CN(C)C)n2C)CC1 | 7%
O=C(Nc1ncc(-c2ccccc2)c2c1OCC2)c1ccccc1 | -23%[70.6 µM]
COC(=O)c1ccc2nc(C[C@@H]3C[C@@H](C(C)C)[C@H](CNC(=O)C(C)C)C=C3C)[nH]c2c1 | 0%[70.6 µM]
Cc1nn2c(c1-c1ccccc1OCc1ccccc1)N(Cc1cccc(O)c1)CCC2 | ?
COc1ccccc1N1CCN(C(=O)c2c(OC)cc(=O)n3c2CCCC3)CC1 | -1%
COc1ccc(-c2noc(-c3cccn3CC(=O)Nc3cc(Cl)c(OC)cc3OC)n2)cc1F | 0%
Cc1ccc2c(c1)N(CCCC(=O)N1CCc3c(nc4cc(-c5ccccc5)[nH]n4c3=O)C1)C(=O)CO2 | -20%
O=C(NCc1cccc(F)c1)c1nc2c(o1)CCN(Cc1cc(F)ccc1F)CC2 | ?
CCCC(=O)NC1CCN(c2cnn(C)c(=O)c2)CC1 | 7%
CN(Cc1ccc(F)cc1)c1ccc2ncc(Nc3ccnc(N4CCOCC4)c3)n2n1 | 10µM*
O=C(Nc1ccccc1)O[C@@H]1CO[C@H]2[C@@H]1OC[C@@H]2NC(=O)C1CCC1 | ?
CN(C)c1nccnc1OC1CCN(C(=O)C2CCOCC2)C1 (stereo unspecified) | 1%
O=C1CC2(CCN(CC3CC3)CC2)Oc2ccccc2N1 | 3%[70.6 µM]
CC(C)CCNC(=O)c1cnc2n1CCN(CCCc1ccccc1)CC2 | -2%[70.6 µM]
CC1=C(C(=O)OC(C)C)C(c2ccc(C)cc2)N2C(CC(=O)N3CCCCC3)=CSC2=N1 (stereo unspecified) | -17%
COc1ccc(C2Cn3cnc(C(=O)N4CCC(C(=O)NC5CCC(C)CC5)CC4)c3CO2)cc1 (stereo unspecified) | 0%
O=C1CCN(C(=O)[C@@H]2CCCN2)CCCCCCN1 | 4%
NC(=O)[C@@H](Cc1ccccc1)NC(=O)[C@@]1(O)C[C@@H](O)[C@H](O)[C@@H](NS(=O)(=O)c2cccc(C(F)(F)F)c2)C1 | 0%
Cc1ccccc1C(=O)N1CCC2(CC1)N=C(c1ccc(Br)cc1)NO2 | 14µM*
O=C1CC(c2ccccc2)N(C(=O)C2CC2)CCCN(C(=O)c2ccsc2)CCN1 (stereo unspecified) | -3%
COCCOCC(=O)N1CC(Oc2ccccc2-c2nc(C3CC3)no2)C1 | 1%
O=C(NCCCN1CCCC1=O)c1ccccc1C1CCNC1 (stereo unspecified) | -1%

High-throughput results deposited in PubChem by National Center for Advancing Translational Sciences (NCATS).
